Source: PubChem BioAssay (National Center for Advancing Translational Sciences (NCATS))
RE007 growth inh = less growth of the S. pombe RE007 Vpr strain | Potency, µM (series often up to 92.2 µM), without a hit: at the top dose activity change, negative = less growth | hit rate 0.21% among 360,000 | S. pombe RE007 Vpr strain, BacTiter-Glo ATP luminescence, 24 h; control for the full effect not named in the record; active = well fitted falling curve with a large enough effect; inconclusive = small, poorly fitted or top-dose-only effect; inactive = no such curve, though single readings can be large or run the other way;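 also: % is scaled to controls: 0 for no effect and ±100 for the full control effect; nearly all actives have a fitted effect of over 50% in size; the assay follows cell death caused by Vpr and the record does not say whether a fall means rescue or toxicity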
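Fission yeast strain RE007, carrying one chromosomally integrated HIV-1 vpr copy, was seeded at OD 0.01 in PMG+AL medium with 23 nL pinned compound. After 24 h at 30 °C and 99% humidity, viability was read by BacTiter-Glo luminescence.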
StopGo reporter = FMDV 2A StopGo reporter, luciferase signal. human cells with a luciferase reporter of 2A StopGo recoding; control for the full effect not named in the record. Potency, µM (doses to about 57.9 µM), for inactives: at the highest dose signal change, negative = less light. hit rate 1.2% among 410,000. AID 1159524; active = well fitted falling curve with a large enough effect; inconclusive = small, poorly fitted or top-dose-only effect; inactive = no such curve, though single readings can be large or run the other way; tested in HEK293T cells; also: % is scaled to controls: 0 for no effect and ±100 for the full control effect; nearly all actives have a fitted effect of over 45% in size; luciferase light after 4 h
MARV entry inh = inhibitors of Marburg virus binding or cell entry; hit rate 1.8% among 300,000; Marburg virus pseudotyped entry inhibition, cell reporter; control for the full effect not named in the record; about a third of the inactives were read at about 46 µM; Potency, µM (top dose mostly 37.8 µM), for the others: at the top dose activity change, negative = inhibition, hits mostly inhibitors; AID 540276; active = well fitted inhibition curve with a large enough effect; inconclusive = small, poorly fitted or top-dose-only effect, or effect the other way; inactive = flat fitted curve, though single readings scatter; tested in HEK293 cells; about a fifth of its hits are not listed in these tables; also: % is scaled to controls: 0 for no effect and ±100 for the full control effect; luciferase read-out
SARS PLP yeast = SARS-CoV PLP inhibition in yeast; AID 485353; Potency, µM (titrated, usually from 32.9 µM), for inactives: at the top dose activity, positive = growth rescue; hit rate 0.19% among 330,000; S. cerevisiae expressing SARS-CoV PLpro, growth rescue; control for the full effect not named in the record; also: 0% is about no effect; nearly all actives have a fitted effect of over 55% in size; growth read by luminescence after 48 h
LASV entry inh = blocks Lassa virus binding to or entry into cells; Potency, µM (highest dose often 37.9 µM), for inactives: at the highest dose activity change, negative = inhibition, most hits filed as inhibitors; hit rate 1.2% among 300,000; AID 540256; Lassa virus pseudotype entry inhibition, cell reporter; control for the full effect not named in the record; active means well fitted inhibition curve with a large enough effect; inconclusive means small, poorly fitted or top-dose-only effect, or effect the other way; inactive means flat fitted curve, though single readings scatter; tested in HEK293 cells; also: % is scaled to controls: 0 for no effect and ±100 for the full control effect; nearly all actives have a fitted effect of over 50% in size; luciferase read-out
Cruzain inh Det = cruzain (T. cruzi) inhibition with detergent. P25779. hit rate 0.43% among 200,000. Potency, µM, inactives show max response, negative = inhibition, actives largely listed as inhibitors. AID 1478. purified cruzain, Z-FR-AMC fluorescence, 0.01% Triton; active = well fitted curve in the direction sought with a large enough effect; inconclusive = small, poorly fitted or top-dose-only effect, or another doubt; inactive = no such curve, though single readings can be large; an effect the other way counts as inactive or inconclusive;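 also: plate controls were neutral wells for no effect and buffer without enzyme for full effect; nearly all actives have a fitted effect of over 40% in size; top concentration of the series not given in the record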
Target sequence (P25779 123-467 limits assumed): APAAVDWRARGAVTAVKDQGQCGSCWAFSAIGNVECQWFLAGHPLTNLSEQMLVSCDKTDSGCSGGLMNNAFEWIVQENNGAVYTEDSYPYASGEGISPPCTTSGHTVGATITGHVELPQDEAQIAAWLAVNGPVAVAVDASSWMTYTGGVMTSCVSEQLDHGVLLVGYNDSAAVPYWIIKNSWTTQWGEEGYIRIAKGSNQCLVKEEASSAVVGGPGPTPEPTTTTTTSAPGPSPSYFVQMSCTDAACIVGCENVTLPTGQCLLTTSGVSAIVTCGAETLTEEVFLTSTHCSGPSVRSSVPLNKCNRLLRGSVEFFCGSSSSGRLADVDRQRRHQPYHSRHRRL
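Compounds were screened in titration against cruzain (1.5 nM) with 0.01% Triton X-100 to counter colloidal aggregation. Activity was the AMC fluorescence increase over 60 s after adding 2 uM Z-FR-AMC at pH 5.5.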
Cruzain inh noDet = inhibitors of Trypanosoma cruzi cruzain without detergent. P25779. purified cruzain, Z-FR-AMC fluorescence, no detergent. Potency, µM, for inactives: max response, negative = inhibition, hits mostly inhibitors. hit rate 2.3% among 200,000. AID 1476; active = well fitted curve in the direction sought with a large enough effect; inconclusive = small, poorly fitted or top-dose-only effect, or another doubt; inactive = no such curve, though single readings can be large; an effect the other way counts as inactive or inconclusive;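 also: plate controls were enzyme without inhibitor for no effect and buffer without enzyme for full effect; nearly all actives have a fitted effect of over 40% in size; top concentration of the series not given in the record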
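Purified cruzain at 1.5 nM, pre-incubated 15 min with compound at room temperature in 100 mM sodium acetate pH 5.5, 5 mM DTT, 0.00005% Triton X-100. Reaction started with 2 uM Z-FR-AMC; AMC fluorescence increase over 60 s gives rate.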
NS1 function inh = influenza NS1 inhibition. S. cerevisiae slowed by influenza A NS1, growth recovery by OD600. Potency, µM (titrated, usually from 46.1 µM), inactives show at the highest dose activity, positive = more growth. hit rate 0.4% among 270,000. AID 2326; also: actives are rising curves; nearly all actives have a fitted effect of over 50% in size
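S. cerevisiae expressing influenza A NS1, grown in glucose, washed, then diluted 1:100 into pH 6.0 -URA galactose medium with 23 nl compound. Growth recovery read as OD600; NS1-free strain serves as control.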
* marks the source's active call; other numbers are inactive results; ? = inconclusive; . = no result given; [ ] = remark or other dose. Unless noted, calls follow the shape of the dose curve; as a rule, active means well fitted rising curve with a large enough effect; inconclusive means small, poorly fitted or top-dose-only effect; inactive means no such curve, though single readings can be large or run the other way. Potency is read from the fitted curve at half-maximal effect.

#	compound	RE007 growth inh	StopGo reporter	MARV entry inh	SARS PLP yeast	LASV entry inh	Cruzain inh Det	Cruzain inh noDet	NS1 function inh
1	COc1ccc(N2CC(C(=O)Nc3nnc(SCC(=O)NCc4ccco4)s3)CC2=O)cc1 (stereo not given)	-14%	-13%	-9%	3%	6%	.	.	3%
2	O=C(CNC(=O)C(c1ccccc1)c1ccccc1)N/N=C\c1ccc(C(=O)O)cc1	-5%	12%	.	5%	.	.	.	?
3	CC(NC(=O)COC(=O)C1=COCCO1)C12CC3CC(CC(C3)C1)C2 (stereo not given)	0%	6%	?	-3%	0%	.	.	-7%
4	COc1ccc(NC(=O)c2oc3ccccc3c2NC(=O)c2ccc3c(c2)OCO3)cc1	-14%	16%	6%	-5%	0%	-0.8%	?	-24%
5	N/C(=N\OC(=O)N1CCOCC1)c1ccc(Br)cc1	13%	26%	.	-2%	.	.	.	5%
6	CCN(Cc1ccccc1)C(=O)c1cc(-c2ccc(OC)c(OC)c2)nc2ccccc12	-18%	-4%	-21%	0%	?	.	.	-5%
7	Cc1ccc(-c2nc3ncccc3o2)cc1NC(=O)c1sc2ccccc2c1Cl	-19%	23%	6%	-4%	?	1.0%	1%	3%
8	CCOC(=O)C1CCN(C(=O)CNC(=O)c2nn(-c3ccc(OC)cc3OC)c(=O)c3ccccc23)CC1	-2%	0%	-12%[46.1 µM]	1%	4%[46.1 µM]	.	.	-5%
9	Cc1nc2ccccc2nc1OCc1cccc([N+](=O)[O-])c1	17%	-4%	-20%[46.1 µM]	0%	-11%[46.1 µM]	.	.	7%
10	CCCN(CC(=O)c1cc(C)n(C)c1C)S(=O)(=O)c1cccc(C(F)(F)F)c1	3%	0%	-27%	-13%	?	-6.2%	?	-58%

Compounds shown so far containing a halogen:
#	compound	RE007 growth inh	StopGo reporter	MARV entry inh	SARS PLP yeast	LASV entry inh	Cruzain inh Det	Cruzain inh noDet	NS1 function inh
5	N/C(=N\OC(=O)N1CCOCC1)c1ccc(Br)cc1	13%	26%	.	-2%	.	.	.	5%
7	Cc1ccc(-c2nc3ncccc3o2)cc1NC(=O)c1sc2ccccc2c1Cl	-19%	23%	6%	-4%	?	1.0%	1%	3%
10	CCCN(CC(=O)c1cc(C)n(C)c1C)S(=O)(=O)c1cccc(C(F)(F)F)c1	3%	0%	-27%	-13%	?	-6.2%	?	-58%

The list goes on.
#	compound	RE007 growth inh	StopGo reporter	MARV entry inh	SARS PLP yeast	LASV entry inh	Cruzain inh Det	Cruzain inh noDet	NS1 function inh
11	Cc1ccc(S(=O)(=O)N2CCN(C(=O)COC(=O)c3ccccn3)CC2)c(C)c1	-25%	-13%	17%	-3%	-18%	.	.	.
12	COc1ccc(CCN2C(=O)CC(Cc3ccccc3)C2=O)cc1OC (stereo not given)	-7%	-13%	.	0%	.	.	.	3%
13	CC(C)CNC(=S)NNC(=O)c1ccc2c(c1)OCO2	?	33%[activator]	4%	?	8%	3.0%	9%	10%
14	CC(C)N(C(=O)CSc1nc2c([nH]1)c(=O)n(C)c(=O)n2C)c1ccccc1	-8%	-17%	.	5%	.	0.9%	-3%	-14%
15	N#Cc1ncc(N=Cc2ccc(N(CCCl)CCCl)cc2)s1	22%	-27%	0.79µM*	.	0.71µM*	.	.	.
16	CC1CCCC(NC(=O)c2ccc(COc3ccccc3)o2)C1C (stereo not given)	-15%	-5%	?	.	-28%[46.1 µM]	.	.	11%
17	COc1ccc(OCC(O)CNC(=O)c2cccs2)cc1 (stereo not given)	-2%	6%	1%	-2%	10%	.	.	0%
18	Cc1ccccc1NC(=O)CCN1CCc2ccccc2C1	1%	1%	.	1%	2%	.	.	4%
19	Cc1nn2c(-c3ccccn3)ccnc2c1Br	-1%	0%	5%	2%	16%	.	.	.
20	O=C(NCCc1ccccc1)c1ccc2c(c1)N(Cc1ccccc1)C(=O)c1ccccc1S2=O (stereo not given)	.	5%	?	.	-17%[46.1 µM]	-0.5%	-27%	.

2 compounds picked at random from the list so far:
#	compound	RE007 growth inh	StopGo reporter	MARV entry inh	SARS PLP yeast	LASV entry inh	Cruzain inh Det	Cruzain inh noDet	NS1 function inh
13	CC(C)CNC(=S)NNC(=O)c1ccc2c(c1)OCO2	?	33%[activator]	4%	?	8%	3.0%	9%	10%
20	O=C(NCCc1ccccc1)c1ccc2c(c1)N(Cc1ccccc1)C(=O)c1ccccc1S2=O (stereo not given)	.	5%	?	.	-17%[46.1 µM]	-0.5%	-27%	.

Additional records.
#	compound	RE007 growth inh	StopGo reporter	MARV entry inh	SARS PLP yeast	LASV entry inh	Cruzain inh Det	Cruzain inh noDet	NS1 function inh
21	Cc1cc(/C=N\O)c(C)n1-c1ccncc1	8%	-11%	13%	4%	-1%	3.3%	0%	6%
22	CSc1ccccc1NC(=O)CN(C)S(=O)(=O)c1ccc(F)cc1	-2%[3.69 µM]	?	9%	-7%	16%	5.8%	6%	3%
23	COc1cc(/C=C/C(=O)O)cc(S(=O)(=O)N(C)CCO)c1OC	-13%	-5%	-17%	6%	-6%	4.2%	-4%	7%
24	CN(C)Cc1ccc(CNC(=O)COc2ccc3ccccc3c2)cc1	13%	0%	?	0%	10%	.	.	5%
25	CCCN(C#N)c1nc(NCC)nc(NC(C)C)n1	-9%	-29%	-8%	2%	-5%	-0.2%	4%	-5%
26	CC(=O)Nc1ccc(S(=O)(=O)NC(C)C(=O)NCC(c2ccco2)N(C)C)cc1 (stereo not given)	-4%	-9%	22%	-3%	15%	.	.	.
27	CCN(CC(=O)Nc1ccc(OC)cc1)C(=O)c1ccc(=O)n(Cc2ccccc2)n1	1%	-19%	15%	-1%	5%	.	.	.
28	Fc1ccc(OCCCCCCN2CCCC2)cc1	5%	-15%	3%	2%	-4%	-2.5%	0%	8%
29	CCOc1ccc(-n2c(O)c(N=Nc3c(C)n(C)n(-c4ccccc4)c3=O)c(=O)[nH]c2=O)cc1	0%	-1%	-3%[46.1 µM]	1%	4%	.	.	-2%
30	Cn1c2ccccc2c2nnc(SCN3C(=O)c4ccccc4C3=O)nc21	.	.	0%	0%	.	-4.2%	-5%	0%
31	COc1ccccc1N1CCN(S(=O)(=O)c2cccc(F)c2)CC1	1%[3.69 µM]	-13%	3%	-15%	2%	-8.7%	-12%	-31%
32	CC(C)(C)c1ccc(OCC(=O)N2CCN(C=O)CC2)cc1	8%	2%	0%	2%	5%	0.5%	2%	10%
33	CCOC(=O)C1=C(C)NC2=C(C(=O)CCC2)C1c1ccc(N(C)C)cc1 (stereo not given)	-5%	17%	-5%	1%	-5%	-7.0%	-9%	-3%
34	CC1CCCCN1C(=O)CSc1nnc(-c2cccs2)o1 (stereo not given)	-25%	17%	?	0%	?	.	.	0%
35	CN(C)CCNC(=O)c1onc(CSc2nc3ccccc3[nH]2)c1C(=O)NCCN(C)C	-9%	-17%	.	2%	.	.	.	6%
36	Cc1cccc(NC(=O)c2ccccc2C(=O)O)c1	1%	31%[activator]	3%	5%	12%	-0.2%	-12%	-10%
37	O=C1CC(Sc2ccc(Cl)cc2)C(=O)N1c1ccc2c(c1)OCCO2 (stereo not given)	-21%	-17%	?	-7%	3%	.	.	-90%
38	Cc1ccccc1NS(=O)(=O)c1c(C(=O)N2CCCCCC2)c(C)n(C)c1C	-3%	37%[activator]	?	-7%	-12%[46.1 µM]	.	.	1%
39	Cc1cc(NC(=O)CCC(=O)N(C2CC2)C2(C(=O)NC3CCCC3)CCC(C)CC2)no1 (stereo not given)	-1%	-8%	20%	2%	16%	1.1%	1%	-6%
40	CCOC(=O)N1CCN(C(=O)c2ccc3c(=O)n(CCC4=CCCCC4)c(=O)[nH]c3c2)CC1	11%	?	-5%	-1%	-7%	-6.5%	?	-1%

Whole records, quoted from the list. Order of values: RE007 growth inh, StopGo reporter, MARV entry inh, SARS PLP yeast, LASV entry inh, Cruzain inh Det, Cruzain inh noDet, NS1 function inh
Cc1ccccc1NS(=O)(=O)c1c(C(=O)N2CCCCCC2)c(C)n(C)c1C in the list: -3%, 37%[activator], ?, -7%, -12%[46.1 µM], ., ., 1%
COc1ccccc1N1CCN(S(=O)(=O)c2cccc(F)c2)CC1 in the list: 1%[3.69 µM], -13%, 3%, -15%, 2%, -8.7%, -12%, -31%
CC(C)(C)c1ccc(OCC(=O)N2CCN(C=O)CC2)cc1 in the list: 8%, 2%, 0%, 2%, 5%, 0.5%, 2%, 10%

(continued)
#	compound	RE007 growth inh	StopGo reporter	MARV entry inh	SARS PLP yeast	LASV entry inh	Cruzain inh Det	Cruzain inh noDet	NS1 function inh
41	NC(=O)C1CCN(C(=O)NC2CC(=O)N(c3ccc4c(c3)OCCO4)C2)CC1 (stereo not given)	-12%	-2%	6%	2%	12%	.	.	.
42	CCOCc1nnc(NC(=O)CSc2ccccc2)s1	-14%	-11%	-3%[46.1 µM]	-4%	1%	0.8%	-14%	-5%
43	Cc1ccc(CS(=O)(=O)CCC(=O)NCC2CCCO2)cc1 (stereo not given)	16%	-1%	-17%	-1%	5%	15%	5%	-1%
44	Cc1c(C(=O)N(C)CCOc2ccccc2)oc2c(Cl)cccc12	-14%	0%	10%	-7%	0%	.	.	.
45	O=c1cc(-c2ccccc2)nc2nc(-c3ccco3)[nH]n12	-20%	-15%	-42%	0%	?	-0.6%	0.4µM*	0%
46	CCC(C)n1c(=N)c(C#N)cc2c(=O)n3cccc(C)c3nc21 (stereo not given)	-8%	-13%	?	2%	17%	.	.	7%
47	O=C(c1ccccc1)N1CCCCC(Sc2nnnn2-c2ccccc2)C1=O (stereo not given)	4%	.	-4%	0%	-30%	-4.0%	3%	9%
48	CCCCOc1ccccc1C(=O)Nc1onc2c1CCCC2	.	-8%	19%[46.1 µM]	.	12%[46.1 µM]	-8.5%	-7%	.
49	Cc1cc(C(=O)OC(C(=O)Nc2ccc(C)c(Cl)c2)c2ccccc2)c(C)o1 (stereo not given)	19%	-12%	-20%	-14%	9%	1.2%	?	7%
